High-throughput results from PubChem BioAssay.
Ba CapD inh: CapD enzyme inhibition | AID 492967 | purified CapD enzyme, fluorescence intensity read-out; active compounds read low; some hits fall short of the stated cut | z-score (concentration not given with the values) | 140,000 compounds, 0.23% hits;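 active means z-score under -4 in either of two replicates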;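 further: stock transfer was 100 nL into about 40 µL; score is relative to mean and spread of the plate; one replicate is shown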
AID504770: E. coli YBA685 growth inhibition, screen for V. cholerae RctB inhibitors; E. coli YBA685 rctB-dependent plasmid, OD600 growth, 3 h; active compounds read low; z-score (test concentration not listed); 130,000 compounds, 0.27% hits; AID 504770;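 active means z-score under -2 on both plates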;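 further: wells of about 30 µL received 100 nL stock; score is relative to mean and SD of the test wells; the first replicate is given; strong numbers were not always called active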
The depositor's hits bear a star; x = not tested or not shown.

structure	Ba CapD inh	AID504770
CC(C(=O)O)N1C(=O)/C(=C/c2ccccc2Cl)SC1=S (stereo not given)	-1.8	-1.6
O=C1OCc2cc(-n3cnnn3)ccc21	2	0.25
COc1ccc(/C=C/C(=O)N2c3ccccc3COC2c2ccccc2)cc1 (stereo not given)	-0.16	0.45
Cc1ccc(C2OC3(C(=O)c4ccccc4C3=O)C3C(=O)N(c4cccc(C(F)(F)F)c4)C(=O)C23)cc1 (stereo not given)	-0.09	x
FC(F)(F)c1nc(Cl)c2ccccc2n1	x	0.05
CCCS(=O)(=O)c1c(S(=O)(=O)CCC)c2ccccn2c1C(=O)N/N=C/c1ccc(OC)c(OC)c1	17	x
CCC(Sc1ccc(Cl)cc1)C(=O)Nc1nnc(C)s1 (stereo not given)	-0.19	-0.85
O=C(c1cc(-c2ccc(Cl)c(Cl)c2)nc2ccccc12)N1CCOCC1	-0.28	x
Cc1cccc(C(=O)NCc2nc(-c3ccccc3Cl)no2)c1	0.24	-0.2
Cc1cc(S(=O)(=O)N2CCCC2c2ccc(F)cc2)cc(C)c1F (stereo not given)	0.035	-0.35
CCN1c2ccccc2-c2nc3ccccc3n2C1c1ccsc1 (stereo not given)	66	0.75
CNC(=O)C(=O)NCC1(c2ccc(OC)c(OC)c2)CCCC1	0.97	x
CCC(C)NC(=O)C1CCN(S(=O)(=O)N2CCC3(CC2)OCCO3)CC1 (stereo not given)	-0.88	-0.75
CCOC(=O)C(N)C(O)c1ccccc1 (stereo not given)	-0.14	-0.35
COCCNC(=O)c1ccc2c(c1)C(=O)N(C)C2=O	-0.23	-1
O=C(c1ccccc1)c1cnc2ccccn2c1=O	0.77	-0.15
CCN(CC)C1=NC(=O)C(CC(=O)Nc2cccc(C(=O)NCc3ccco3)c2)S1 (stereo not given)	x	-0.35
Cc1ccc(-n2c(=O)oc3ccc(Cl)cc3c2=O)cc1Cl	-0.58	0.05
COC(=O)CSc1nnc2n1C(C)(C)Cc1ccccc1-2	x	2
COc1ccccc1NC(=O)CN(Cc1ccco1)C(=S)NCc1ccccc1	x	-0.6
CC(=O)N/N=C(/C)c1ccccc1	-0.18	-0.1
CN(C)c1nc2c(c(=O)n(C)c(=O)n2C)n1CC(=O)c1ccccc1	0.53	0.55
COC(=O)c1ccc(/C=N/c2c(-c3ccco3)nc3ccccn23)cc1	0.59	-0.25
C(/C=C/c1ccco1)=NN1CCN(C2c3ccccc3-c3ccccc32)CC1	0.15	1.4
Cc1c[nH]c2cccc(OCC(O)CN3CCN(C(c4ccccc4)c4ccccc4)CC3)c12 (stereo not given)	0.25	0
CC1=NN(c2ccc(Cl)cc2)C(=O)C1CCO (stereo not given)	0.56	x
Cc1ccc(NCCOc2ccccc2)c(C)c1	x	1.1
O=C1CC(c2ccc(Cl)c(Cl)c2)c2ccc3ccccc3c2N1 (stereo not given)	0.26	x
Cc1cc2c(cc1C)-c1c(ssc1=Nc1ccc(Cl)cc1)C(C)(C)N2	-0.23	x
O=C(NCCO)c1cc2ccccc2oc1=O	-0.17	0.3
CC(C)c1nc2sc3c(ncn4ncnc34)c2c2c1CCCC2	-0.085	-1.9
Nc1nonc1-n1nnc(C(=O)N/N=C/C=C/c2ccccc2)c1CN1CCCCCC1	-0.27	x
Cc1nn(C2CCS(=O)(=O)C2)c(Cl)c1/C=C1\SC(=S)NC1=O (stereo not given)	x	-1.9
CSc1nn(-c2ccccc2)cc1C(=O)N1CCCC1	-0.48	1.8
Cc1cc(C(=O)COC(=O)CCc2nc3ccccc3c(=O)[nH]2)c(C)n1C	x	0.25
CCOc1ccc(C2C(N3C(=O)c4c(Cl)c(Cl)c(Cl)c(Cl)c4C3=O)C(=O)N2c2ccc(F)cc2)cc1 (stereo not given)	-0.22	x
Nc1ccc(-c2ccc(N)cc2)cc1	9.2	0.3
O=C(O)CN1C(=O)/C(=C/C=C/c2ccccc2)SC1=S	-2.7	0.5
Cc1cc(NNS(=O)(=O)c2ccc(OC(F)(F)F)cc2)n2ncnc2n1	x	-0.05
O=C(CN1C(=O)NC(Cc2ccccc2)C1=O)c1ccc(S(=O)(=O)N2CCCC2)cc1 (stereo not given)	x	-0.1
CNc1cncc(C(=O)O)c1	x	0
C/C(=N\NC(=O)c1cc2ccccc2cc1O)c1ccc(N)cc1	x	0.35
CSc1nc(Sc2ccc(C)cc2)c2cnn(-c3ccccc3)c2n1	-0.27	x
COc1ccc(OC)c(N(CC(=O)NCCc2ccc(OC)c(OC)c2)S(=O)(=O)c2ccc(OC)c(OC)c2)c1	-0.28	x
O=C(Nc1ccccn1)c1ccc(Br)o1	-0.21	-1
CCc1ccc(S(=O)(=O)Nc2ccc3c(c2)c2c(n3S(=O)(=O)c3ccc(CC)cc3)CCCC2=O)cc1	0.04	x
Cn1c(SCc2ccc3c(c2)OCO3)nc2ccccc2c1=O	2.3	0.2
NS(=O)(=O)c1ccc(CCNC(=O)CN2CC(=O)Nc3ccccc32)cc1	x	2.1
CCOc1c(Br)cc(C2C(C(=O)N3CCOCC3)=C(C)NC3=C2C(=O)CC(C)(C)C3)cc1OC (stereo not given)	30	x
COc1ccc(OC)c(S(=O)(=O)Nc2cc3c(cc2N2CCOCC2)n(C)c(=O)n3C)c1	-0.2	0.05
COc1ccc(C(=O)COC(=O)c2ccccc2N2C(=O)C3C4C=CC(C4)C3C2=O)cc1 (stereo not given)	-0.05	x
N#Cc1cn(CC(=O)N2CCc3ccccc32)c2ccccc12	1.2	2.1
CCc1ccc(CCC(=O)Nc2ccc(S(N)(=O)=O)cc2)o1	x	-0.35
O=C(c1ccccc1)c1nc2c(ccc3ccccc32)o1	x	0.15
Cc1ccc(-c2ccc(S(C)(=O)=O)cc2)n1-c1cc(Cl)cc(Cl)c1	55	x
CC(C)Sc1nc2ccccc2c(=O)n1-c1ccc(F)cc1F	-0.61	1.2
CCOC(=O)COc1ccc(Br)cc1C#N	0.37	1.8
C=CCSc1nnc2c(n1)OC(c1ccc(-c3ccc(F)cc3)o1)N(C(C)=O)c1ccccc1-2 (stereo not given)	9.2	-0.2
CN=C(Nc1ccnn1C(C)C)c1ccccc1	x	-0.1
CCOC(=O)C1=C(O)/C(=C/c2ccc(O)c(OC)c2)SC1=Nc1cccc(Cl)c1	0.18	x

Next part.
structure	Ba CapD inh	AID504770
CCc1nc2ccc(C(=O)NCCCN3CCCCC3)cc2nc1CC	0.28	0.55
COC(=O)c1sccc1NC(=O)c1ccc(C)cc1	-0.18	0.45
O=C(CCCn1c(SCc2cc(=O)n3ccccc3n2)nc2ccccc2c1=O)NCc1cccc(Cl)c1	1.5	x
Cc1ccc(-c2nn3nnnc3c3ccccc23)cc1C	0.71	1.4
O=C(NCc1ccccc1)c1ccc(S(=O)(=O)N2CCCCC2)cc1	1.3	0
CCOC(=O)c1ccc(NC(=O)c2ccc(Cl)s2)cc1	-0.11	-0.1
COc1ccc(-c2noc(N3CCC(C(=O)N4CCN(c5ccccc5)CC4)CC3)n2)cc1	-0.2	0.3
c1ccc(CCn2c(-c3ccc(C4CCCCC4)cc3)csc2=Nc2ccccc2)cc1	-0.37	x
O=C(Nn1c(=S)[nH]c2ccccc2c1=O)c1ccncc1	-1.3	-1.4
Cc1cc2ccccc2n1-c1ccc(C(=O)N2CCc3ccccc32)s1	0.17	-0.25
CCC(C)NC(=O)c1n[nH]c(=O)c2ccccc12 (stereo not given)	x	-0.55
COc1ccc(C(C(=O)NC2CCCCC2)N(Cc2ccc3c(c2)OCO3)C(=O)c2cnccn2)cc1OC (stereo not given)	x	0.2
Cc1cc(N)ccc1-c1ccc(CO)o1	x	-0.9
Cc1cc(N=CNO)c2ccccc2n1	-1.4	x
S=C1CSc2ccccc2N1	-4.1	-0.8
COC(=O)C1=Cc2cc(Cl)ccc2OC1	-0.065	0.5
Cn1cnnc1SCC(=O)N1CCCC1	x	0.3
CCN(CC)CCCNc1nc2cc(OC)c(OC)cc2c2nc(-c3cccnc3)nn12	0.36	0.45
CC(C)CNC(=O)C1CCCN(C(=O)NCc2ccccc2)C1 (stereo not given)	x	-0.9
Cc1cc(OC(=O)c2c(-c3ccccc3)noc2C)c2cc(F)ccc2n1	0.35	x
Cc1ccc(C)c(N(C)S(=O)(=O)c2ccc3[nH]cc(C(=O)N4CCN(Cc5ccccc5)CC4)c(=O)c3c2)c1	3.8	x
O=C(CSc1c[nH]c2ccccc12)Nc1nccs1	-0.98	1.1
Cc1cccc(NNC(=O)C(O)(c2cccc(C)c2)c2cccc(C)c2)c1	0.15	x
CC(C)(C)c1ccc(C(=O)CC(N)=O)cc1	-1.3	-0.25
Cc1cc2oc(=O)cc(COC(=O)c3cccc(N(C)C)c3)c2cc1C	x	-0.35
Clc1ccccc1CSc1nc2ccccc2[nH]1	-0.28	x
O=C(Nc1ccc(NC(=O)c2ccccc2F)cn1)c1ccco1	x	0.25
O=c1c(CN2CCN(S(=O)(=O)c3ccccc3)CC2)cc2cccc3c2n1CCC3	1.4	x
CC(C)(O)C#Cc1ccc(C(=O)N2CCC(C(O)(c3ccccc3)c3ccccc3)CC2)o1	-0.045	-0.05
CCOC(=O)C1=C(CN2CC=C(c3ccccc3)CC2)NC(=O)NC1c1cccc(OC)c1OC (stereo not given)	2	0.7
COC(=O)C1=C(C(=O)OC)SC(=C2C(=S)C(C)(C)N(C(=O)c3ccc(F)cc3)c3cc(C)c(C)cc32)S1	0.3	x
COc1ccc(Br)cc1/C=N/N=C1/C(=O)Nc2ccccc21	-0.3	x
CN(C)Cc1c(N)cc2ccccc2c1-c1ccccc1	42	-0.5
NS(=O)(=O)c1ccc(C(=O)NN=Cc2ccccc2[N+](=O)[O-])cc1	-0.93	x
CCC(=O)NC(C)c1nc2ccccc2n1C (stereo not given)	-0.36	0.3
COc1ccc(CC(=O)Nc2c(-c3ccc(F)cc3)nc3ccccn23)cc1	0.005	-1.5
CCOC(=O)c1c(NC(=O)C23CC4CC(CC(C4)C2)C3)sc(C(=O)Nc2ccc(OC)cc2OC)c1C	0.78	x
Cc1nc(Nc2nc3ccccc3o2)ncc1C(=O)Nc1cccc(C(F)(F)F)c1	-0.44	0.5
Cn1c(=O)c(=O)n(C)c2cc(S(=O)(=O)NCCN3CCCCCC3)ccc21	-0.16	-0.7
Cc1c(C(=O)Nc2ccc(OC(F)F)cc2)oc2ccc(Cl)cc12	-0.34	0.05
CSc1cccc(NS(=O)(=O)c2cccs2)c1	0.21	-0.15
CCN(CC)C(=O)CSc1nsc(SCC(=O)N(CC)CC)c1C#N	x	-0.45
COc1cc(/C=C2\SC(NC(C)=O)=NC2=O)cc(Br)c1OC(C)=O	-1.1	x
CC1CCCCC1NC(=O)COc1ccc(-n2cnnn2)cc1 (stereo not given)	x	1.2
O=C1CCc2cc(C3=CSC4=NCCN34)ccc2N1	-0.32	0.25
Cc1ccc(S(=O)(=O)n2cccn2)cc1C	x	0.25
CC(=O)N(CCC(c1ccccc1)c1ccco1)Cc1ccc(OC(C)C)cc1 (stereo not given)	0.48	0.3
O=C1Nc2ccc(F)cc2C12OCCO2	0.16	-0.8
CN1CCC(N(C(=O)Nc2ccccc2)C2CCN(Cc3ccccc3)CC2)CC1	-0.14	x
Fc1ccc(-c2csc(-c3ccc(Cl)cc3)n2)cc1F	3.1	x
CCOC(=O)c1oc2ccccc2c1CSc1nnnn1-c1ccc(OC)cc1	x	0.1
CCCc1c(NC(=O)Nc2ccc(Cl)cc2Cl)cnn1-c1ccccc1	0.45	1.1
COc1cccc(C(=O)NCCS(=O)(=O)N2CC(C)CC(C)C2)c1 (stereo not given)	x	0.35
CC12CN3CC(C)(CN(C1)C3c1cn(Cc3ccccc3)c3ccccc13)C2=O (stereo not given)	6.2	x
Cc1cc(-c2ccc(/C=C3/C(=O)NC(=O)N(C4CCCCC4)C3=O)o2)ccc1Br	-0.99	-0.4
Cc1cc(C)c(CO)cc1CO	0.21	0.05
Cc1cccc(N2CCN(C(c3ccccc3F)c3nnnn3C(C)C)CC2)c1C (stereo not given)	x	2.3
CC1(C)Oc2ccc3ccc(=O)oc3c2-c2cn[nH]c21	x	-0.9
CCCOc1ccc(N)cc1OCCC	-1.4	-0.85
COc1ccc(C(=O)Nc2cc(-c3nc4cc(C)ccc4o3)ccc2Cl)cc1Br	0.17	x
CC1=C(C(=O)NC2CCCCC2)C2(CCCCC2)OC1=O	0.14	-0.8

A portion of the library; the hit share may differ from the screen's.
